# High-throughput results as filed in PubChem.
# nsP2pro inh: CHIKV nsP2 protease inhibition, primary qHTS. Potency, µM (series often up to 24.9 µM), for inactives: at the highest dose activity change, negative = inhibition, most hits filed as inhibitors. 1.1% of 31,000 active. AID 1964107. FRET peptide cleavage, nsP2pro, fluorescence 1 h; active means well fitted inhibition curve with a large enough effect; inconclusive means small, poorly fitted or top-dose-only effect; inactive means no such curve, though single readings can be large or run the other way; note: nearly all actives have a fitted effect of over 60% in size; a reference inhibitor and vehicle were the controls
# Starred values were filed as active, the others as inactive; i = inactive; ? = inconclusive; & = joins results of further samples; [ ] = another dose, or the depositor's remark. % is set by controls: 0 for no effect and ±100 for the full control effect; potency is the fitted concentration of half-maximal effect.
SMILES | nsP2pro inh
Cc1cnc(C)c(-c2cc(O)c3c(c2)CNCCO3)n1 | i
Cc1c(O)nc(SCC(=O)Nc2ccc(Cl)cc2Cl)n(-c2ccc(F)cc2)c1=O | -5%
O=C1NC(=O)C(c2cn3c4c(cccc24)CCC3)C1c1c[nH]c2ccccc12 (centres undefined) | 10%
Cn1ccnc1-c1ccc(N2CC[C@@]3(O)CCN(S(C)(=O)=O)C[C@H]3C2)nn1 | -8%
CCN1CCc2c(sc(-n3cccc3)c2C(C)NC(=O)Nc2ccc(Br)cc2)C1 (centres undefined) | -16%
COCC1CN(C)CC12CCN(Cc1ccc(Br)o1)CC2 (centres undefined) | -1%
Cn1c(=O)n(C)c2cc(N3CCOCC3)c(NC(=O)c3c(F)cccc3F)cc21 | -26%
O=C(NCCC1=CCCCC1)c1ccc2c(c1)ncn2-c1cccc(Cl)c1 | -1%
COc1ccc(CC(=O)NCC(c2ccc(N(C)C)cc2)N2CCOCC2)cc1OC (centres undefined) | -9%
Cc1ccc(NC(=O)c2ccncc2NS(=O)(=O)c2ccc(C)cc2)cc1 | i
N[C@H]1CCCN(C(=O)c2cnc(C34CC5CC(CC(C5)C3)C4)[nH]c2=O)C1 | i
Cc1nc2c(c(-c3ccc(Cl)cc3)n1)CCN(C(=O)Cc1cccc(Cl)c1)CC2 | i
COCc1noc([C@@H]2CN(C(=O)C3CC=CCC3)C[C@H]2C(N)=O)n1 (some centres undefined) | -2%
C=C(C)[C@@H]1CCC(C)=C[C@H]1c1c(O)cc(CCCCC)cc1O | -2%
CC(=O)NCCNC(=O)CCCc1nnc2n(CCC(C)C)c(=O)c3sccc3n12 | -27%
O=C(O)c1ccccc1C(=O)Nc1ccc(-c2ccccc2)cc1 | -6%&-10%
O=C(c1ccsc1)N1CCc2c(nc3cc[nH]n3c2=O)C1 | -22%
Cc1ccc2nc(NC(=O)CSc3nccn3Cc3ccccc3)sc2c1 | 33%[activator]
O=C(Nc1ccc([S+](=O)([O-])Nc2nccs2)cc1)c1ccccn1 | i
CCn1cnc2c(NCCc3cccnc3)nc(C#N)nc21 | -2%
COc1ccc(-c2nc3c(c(=O)[nH]2)CCN(C(=O)CSc2ccccc2)C3)cc1 | i
CCC/C=C/C=C/C1CC(O)C2(O)C(=O)OCC12 (centres undefined) | 18%
COc1ccc(N2Cc3cccc(C(=O)O)c3C2=O)cc1OC | -4%
CN(Cc1ccccc1)C(=O)Cn1c(=O)c2cccn2c2ccc(F)cc21 | -23%
C=CC(C)(C)c1[nH]c2ccccc2c1C1=C(O)C(=O)C(c2c[nH]c3c(CC=C(C)C)cccc23)=C(O)C1=O | ?
CC(=O)N1CCCC1c1nc(C2CN(Cc3cc(F)c(F)cc3F)C2)no1 (centres undefined) | 3%
CC1OC2OC(=O)C3(C)CC4C5(CO5)C5=CC(=O)OC(C)(C)C5=CC(=O)C4(C)C(C1=O)C23 (centres undefined) | 10%[10 µM]
Cc1cc(NS(=O)(=O)c2ccc(C(=O)NCc3ccc(Cl)c(Cl)c3)cc2)no1 | i
O=S(=O)(NC1CCN(S(=O)(=O)c2ccc3c(c2)OCCO3)C1)c1c(F)cccc1F (centres undefined) | -2%
COCCOC1CCOC2(CCN(C(=O)c3cnccn3)CC2)C1 (centres undefined) | 0%
O=C(Cn1c(=O)oc2cc(S(=O)(=O)N3CCCCCC3)ccc21)Nc1ccc(F)cc1F | -17%
COCCOc1cc(C)c2c(c1C)C[C@H]([C@H](C)C(=O)Nc1ccccn1)CC2 | ?
CCOC(=O)n1ccn(C)c1=S | 2%
Cc1cccc(Cn2ncc3c4sc(C)cc4n(C)c3c2=O)c1 | 2%
CCOC(=O)N[C@H](Cc1c[nH]c2ccccc12)C(=O)Nc1cccc(Cl)c1 | -25%
NNC(=O)C(C(=O)OCc1ccccc1)c1ccccc1 (centres undefined) | -3%
Cc1c[nH]c2ncnc(N3CCC(CN)(C(=O)Nc4cccc(OC(=O)N(C)C)c4)CC3)c12 | 70%[activator]
O=C(c1cccc(F)c1F)N1CCCC2(CCNCC2)CC1 | -11%
C/C=C(\C)C(=O)O[C@H]1C[C@](C)(O)[C@H]2CC=C(C)[C@H]2[C@@H]2OC(=O)[C@H](C)[C@H]21 | 16%
N#C/C(=C1/SC[C@@H](c2ccc(Cl)cc2Cl)S1)n1ccnc1 | 43%[activator]
COc1ccc(CN(Cc2ccccc2)C(=O)c2ccccc2O)cc1COc1ccc(NC(C)=O)cc1 | ?
O=C(Cn1cc(CN(Cc2ccccc2)Cc2ccccc2)nn1)Nc1cc(C(F)(F)F)ccc1Cl | i
O=C(CSc1nccn1Cc1ccccc1)Nc1ccc2c(c1)OCO2 | -10%
CC(C)(C)c1ccc(S(=O)(=O)Nc2ccc(O)c(Sc3nc4ccccc4s3)c2)cc1 | 38%[activator]
COC(=O)c1ccccc1NC(=O)CCCn1nc(C)c2sc3ccccc3c2c1=O | -13%
COc1ccc(S(=O)(=O)NCCc2csc(-c3cccc(F)c3)n2)cc1OC | -6%
CC(C)(C)C(=O)Nc1nc2c(s1)C[C@@H]1[C@](C)(CO)[C@H](O)CC[C@@]1(C)[C@@H]2CC(=O)NC1CC1 | -9%
Cc1cccc(N(C)S(=O)(=O)c2cc3[nH]c(=O)c(=O)[nH]c3cc2C)c1 | -19%
Cn1cc(-c2ccc3c(n2)CN(Cc2ccc(F)cc2)C(=O)CO3)cn1 | -4%[39.2 µM]
CC(C)(C)c1ccc(C(=O)N2CCC(c3nc(-c4ccc(S(=O)(=O)N5CCCC5)cc4)no3)CC2)cc1 | -18%
O=C(CSc1nc2c([nH]c3ccccc32)c(=O)n1-c1ccc(Cl)cc1)NC1CCCCC1 | ?
Cc1ccc(-c2noc(CSc3nnc(C)n3-c3ccc(F)cc3)n2)cc1 | -15%
CCn1c(=O)c2cc(C(=O)NCCCOC)sc2c2ccccc21 | -10%
CC(C)CC(=O)NCCn1cc(C(=O)O)c(=O)cc1C(O)c1ccccc1 (centres undefined) | -10%
COCC(=O)N(C[C@H]1O[C@@H](CC(=O)NC2CC2)[C@H](O)[C@@H]1O)C[C@H]1O[C@@H](CC(=O)NC2CC2)[C@H](O)[C@@H]1O | i
CC(C)C(C#N)O[C@@H]1O[C@H](CO[C@@H]2O[C@@H](C)[C@H](O)[C@@H](O)[C@H]2O)[C@@H](O)[C@H](O)[C@H]1O (some centres undefined) | -11%[10 µM]
Cn1cc(C(=O)Cc2ccccc2)cc1/C=C/C(=O)NO | 16%
CN1CCN([C@H]2[C@@H]3OC[C@@H](O3)[C@@H](NC(=O)Nc3ccccc3)[C@@H]2O)CC1 | -4%[39.2 µM]
CCOc1ccc(CCNC(=O)C2=C(C)OCCO2)cc1OCC | 4%
CCOC(=O)c1ccc(NC(=O)C2CC(=O)N(c3ccc(C(C)C)cc3)C2)cc1 (centres undefined) | -21%

# Brought forward from above: 2 entries, then new ones.
SMILES | nsP2pro inh
CCOc1ccc(CCNC(=O)C2=C(C)OCCO2)cc1OCC | 4%
CCOC(=O)c1ccc(NC(=O)C2CC(=O)N(c3ccc(C(C)C)cc3)C2)cc1 (centres undefined) | -21%
Cc1ccsc1CN1CCC2(CC1)Cc1ccccc1CNC2=O | -7%
COc1ccc(S(=O)(=O)N2CCN(S(=O)(=O)c3ccc4c(c3)OCCO4)CC2)cc1 | i
Cc1ccc(NS(=O)(=O)c2cc3c(cc2NC(C)C)NC(=O)CC3)cc1C | -12%
CC(=O)N1CCC(N2CCOC[C@H]2c2ncc(-c3ccncc3)[nH]2)CC1 | i
Fc1ccc(OCc2nc(C3CCNCC3)no2)cc1 | i
CCCOc1ccc(-c2nonc2NC(=O)c2oc3ccc(Cl)cc3c2C)cc1OCCC | -30%
C=CCNc1oc(-c2ccc(Cl)cc2)nc1C#N | -3%
CCCN(C(=O)Cn1c(=O)oc2cc(Cl)ccc21)c1ccc(C(C)C)cc1 | -26%
CCN(Cc1noc(C)n1)C(=O)c1coc(COc2ccc3c(c2)OCO3)n1 | 4%
CN1CCc2cccc3c2[C@H]1Cc1ccc(O)c(O)c1-3 | 3.1µM*
O=C(O[C@@H]1Cc2c(O)cc(O)cc2O[C@@H]1c1ccc(O)c(O)c1)c1cc(O)c(O)c(O)c1 | ?
CCOC(=O)c1nnn(CC(=O)NC(=O)Nc2ccc(F)cc2)c1C(=O)OCC | -11%
O=C(OCc1ccccc1)N1CCOCC12CCN(Cc1c[nH]c3ccccc13)CC2 | i
Cc1nc(N2C(=O)c3oc4ccccc4c(=O)c3C2c2ccccc2F)sc1C (centres undefined) | -20%
O=c1[nH]nc2n1CCC(NS(=O)(=O)c1ccc(Cl)s1)CC2 (centres undefined) | 5%
O=C(N[C@@H]1CN(Cc2c[nH]c3ccccc23)C[C@H]1CO)c1ccccc1 | -8%
O=C(CCCN1CCN(c2ccccn2)CC1)c1ccc(F)cc1 | -3%&-3%
CNc1cc(OC)c(C(=O)N[C@@H]2CCN(Cc3ccccc3)[C@@H]2C)cc1Cl | -9%
CCc1oc2ccccc2c1C(=O)c1cc(I)c(O)c(I)c1 | 37%[activator]
C[C@@H]1O[C@@H](O[C@H]2[C@H](OC(=O)[C@]34CCC(C)(C)C[C@H]3C3=CCC5[C@@]6(C)C[C@@H](O)[C@@H](O)[C@@](C)(CO)C6[C@H](O)C[C@@]5(C)[C@]3(C)CC4)OC[C@H](O)[C@@H]2O)[C@H](O)[C@H](O)[C@H]1O[C@@H]1OC[C@@H](O)[C@H](O[C@H]2O[C@H](C)[C@@H](O)[C@H](O)[C@@H]2O)[C@H]1O (some centres undefined) | ?
COc1ccc(NC(=O)N2CCOc3ccc(Cl)cc32)cc1 | -5%
CCOc1ccc(C2CC(=O)n3nc(-c4ccc(C)cc4)nc3S2)cc1OC (centres undefined) | -10%
NCC1CCC(C(=O)Oc2ccc(CCC(=O)O)cc2)CC1 (centres undefined) | 19%
COC(=O)c1scc(-c2ccc(C)cc2)c1S(=O)(=O)Nc1cccc(Cl)c1C | -11%
COCCN1C(=O)c2ccccc2C(C(=O)NCc2ccc(Cl)cc2)C12CCCC2 (centres undefined) | -5%
CCc1ccc2oc(C(=O)NCC(c3ccc(OC)cc3)N3CCCCC3)c(C)c2c1 (centres undefined) | 3%
COc1ccc(-c2nc(CCNC(=O)c3ccccc3)cs2)cc1OC | -5%
Cc1ccc(Cn2c(C(=O)Nc3cccc(Cl)c3)cc3sccc32)cc1 | 6%
COc1ccc(C(=O)Nc2cnc3ccccn3c2=O)cc1 | -18%
CCc1c(CN2CCN(c3cccc(C)c3)C(C)C2)csc1C (centres undefined) | -27%

# Quoted at random: 6 records from the list
SMILES | nsP2pro inh
CCCN(C(=O)Cn1c(=O)oc2cc(Cl)ccc21)c1ccc(C(C)C)cc1 | -26%
CCCOc1ccc(-c2nonc2NC(=O)c2oc3ccc(Cl)cc3c2C)cc1OCCC | -30%
CC1OC2OC(=O)C3(C)CC4C5(CO5)C5=CC(=O)OC(C)(C)C5=CC(=O)C4(C)C(C1=O)C23 (centres undefined) | 10%[10 µM]
O=C(Cn1c(=O)oc2cc(S(=O)(=O)N3CCCCCC3)ccc21)Nc1ccc(F)cc1F | -17%
Cc1ccc(NC(=O)c2ccncc2NS(=O)(=O)c2ccc(C)cc2)cc1 | i
CNc1cc(OC)c(C(=O)N[C@@H]2CCN(Cc3ccccc3)[C@@H]2C)cc1Cl | -9%

# Other results follow:
SMILES | nsP2pro inh
O=C(c1ccccc1O)N(Cc1ccco1)Cc1ccco1 | ?
COc1cncc(Nc2cnc3ccc(N(C)Cc4ccc(F)cc4)nn23)c1 | -29%[39.2 µM]
COc1cc(C(=O)O)cc(OC)c1O | ?
CC(C)(C)[C@H](NC(=O)c1ccc(N)c(Cl)c1)C(=O)N1CCC[C@H]1C(=O)N[C@H](C#N)CC(=O)O | 31%[activator]
CCCOc1ccc(CCc2nc3cc(-c4c(C)noc4C)ccc3n2CCN2CCOCC2)cc1 | 33%[activator]
CSc1nc2c(c(=O)[nH]1)C(c1cccc(F)c1F)CC(=O)N2 (centres undefined) | -27%
COc1cccc(CNC(=O)[C@@]23CCCC[C@H]2N(CCc2ccccc2)C(=O)CC3)c1 | -2%
COc1ccc(CNC(=O)Cn2ccc3cc(S(=O)(=O)N4CCCC4)ccc32)c(OC)c1 | -14%
O=C(O)[C@H]1C[C@@H](C(=O)NCc2cccnc2)CN(Cc2ccccn2)C1 | i
CC(Cc1ccc2c(c1)OCO2)NCC(O)c1ccc(O)c(O)c1 (centres undefined) | 11µM*
C/C=C(\C)C(=O)OC[C@H]1O[C@H](O[C@H]2O[C@H](CO)[C@@H](OC(=O)/C(C)=C/C)[C@H](O)[C@H]2O[C@@H]2O[C@H](CO)[C@@H](O)[C@H](O)[C@H]2O)[C@H](O[C@@H]2O[C@H](CO)[C@@H](O)[C@H](O)[C@H]2O)[C@@H](O)[C@@H]1O | ?
CCOC(=O)c1c(NC(=O)c2cc(OCC)c(OCC)c(OCC)c2)sc2c1CCCCC2 | -21%
CN1CC[C@H]2CN(C(=O)c3ccccc3-n3cccn3)C[C@@]2(C(=O)O)C1 | -9%
Cc1nc(C)c(C(=O)N2CCCCCCNC(=O)CC2)s1 | 2%
Cc1ccc(-n2c(=O)ccc(=O)n2CC(=O)NCCc2ccccc2)cc1 | 4%
CN1CCN(c2cc(N3CCCC(CN4CCCCC4)C3)nc(N)n2)CC1 (centres undefined) | -10%
COc1ccc(-c2noc(CCC(=O)NCc3ccc(OC)cc3OC)n2)cc1 | -16%
COc1ccccc1-c1ccc(-c2cn(C(=O)N3CCCCC3Cc3ccccc3)nn2)cc1 (centres undefined) | 16%
CCOc1ccc(NC(=O)CSc2nc3ccsc3c(=O)n2C(C)CC)cc1 (centres undefined) | ?
COc1cc(C)ccc1OCCSc1nc2ccc(NC(=O)c3ccco3)cc2s1 | 7%
C=C1C(=O)O[C@@H]2[C@H]1CCC(C)=C(CCC(=O)O)[C@@]2(C)O | -17%

# An excerpt; the hit share may differ from the screen's.
